# ID4 binder: binders of human ID4 protein, primary screen, biochemical, small molecule microarray, single point. calls only. Flag-ID4 binding, fluorescence F/B. DNA-binding protein inhibitor ID-4 (Homo sapiens), P47928. 31,000 tested, 1.2% active. AID 624137, 2012;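 active means spot signal over background at p below 0.07 in all four prints; compounds were printed on slides so no solution concentration is given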;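 further: a binder raises fluorescence above local background on the spot; about 2 pmol printed per array spot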
# Target sequence (P47928 whole entry, looked up): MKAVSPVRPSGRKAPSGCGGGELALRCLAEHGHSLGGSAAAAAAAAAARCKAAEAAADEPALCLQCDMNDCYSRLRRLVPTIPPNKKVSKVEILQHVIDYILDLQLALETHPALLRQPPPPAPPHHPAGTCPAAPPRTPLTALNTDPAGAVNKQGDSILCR
# Calls only; i = inactive; + = active, no number. These rows are one share of the data; the hit share may differ from the screen's.
SMILES,ID4 binder
CC1(C)Cc2nc3sc4c(=O)n(CC(=O)NCCc5ccccc5)cnc4c3cc2CO1,i
COc1ccc(N(CC(=O)Nc2ccc(F)c(F)c2)S(C)(=O)=O)cc1OC,i
CCn1c(SCC(=O)Nc2ccccc2F)nnc1-c1ccccc1,i
CNS(=O)(=O)c1cc(-c2nnc(Nc3ccc(NC(C)=O)cc3)c3ccccc23)ccc1C,i
CC1CCc2c(sc3ncnc(SCC(=O)NCc4ccco4)c23)C1 (centres undefined),i
C[C@H](CO)N1C[C@H](C)[C@H](CN(C)C)Oc2cc(-c3ccc(C#N)cc3)ccc2S1(=O)=O,i
COc1ccc(N2C(=O)CC(SCC(=O)Nc3ccc(Cl)c(Cl)c3)C2=O)cc1 (centres undefined),i
COc1ccc(C(Nc2ccccn2)c2ccc3ccc(C)nc3c2O)cc1C (centres undefined),i
CC1=C(C(=O)Nc2cccnc2)C(c2cccc(O)c2)n2nc(SCc3ccccc3)nc2N1 (centres undefined),i
O=C(N[C@H]1CC[C@@H](CC(=O)N2CCc3ccccc3C2)O[C@@H]1CO)C1CC1,i
O=C(COc1cccc(NC(=O)c2cccc([N+](=O)[O-])c2)c1)c1ccc(F)cc1,i
Cc1ccc([N+](=O)[O-])cc1NC(=O)CCn1cnc2ccccc2c1=O,i
CC(C)(C)c1ccc(-c2nc(=O)[nH]n2-c2ccccc2)cc1,i
C[C@H](CO)N1C[C@H](C)[C@@H](CN(C)S(C)(=O)=O)Oc2ncc(C#Cc3ccccc3F)cc2C1=O,i
O=S(=O)(c1ccc(-c2ccon2)s1)N(Cc1ccccn1)Cc1ccccn1,i
Cc1ccc(NC(=O)CSc2nc(-c3ccccc3)cc(=O)[nH]2)cc1Cl,i
COc1ccc(S(=O)(=O)Nc2cccnc2)cc1C(=O)O,i
CCC(=O)N(C)C[C@H]1Oc2ncc(-c3ccc(F)cc3)cc2C(=O)N([C@@H](C)CO)C[C@@H]1C,i
O=c1oc2ccccc2cc1-c1csc(Cc2nc(-c3ccc(Cl)cc3)cs2)n1,i
CCCN(C)C[C@@H]1Oc2ncc(-c3ccccc3OC)cc2C(=O)N([C@H](C)CO)C[C@H]1C,i
O=C(COc1ccc2ccccc2c1)Nc1ccc(O)cc1C(=O)O,i
C=C1CC/C=C(/C(=O)O)C[C@H](O)C2C1CC2(C)C (some centres undefined),i
CC(=O)N[C@H]1CC[C@@H](CCNC(=O)C2CCCC2)O[C@@H]1CO,i
COc1ccc(OCC(O)Cn2cnc3ccccc32)cc1 (centres undefined),i
C[C@H]1CN([C@@H](C)CO)S(=O)(=O)c2ccc(-c3cncnc3)cc2O[C@H]1CN(C)C(=O)c1ccc2c(c1)OCO2,i

# Among those listed so far, these contain a thiophene ring, fused or not.
SMILES,ID4 binder
CC1(C)Cc2nc3sc4c(=O)n(CC(=O)NCCc5ccccc5)cnc4c3cc2CO1,i
CC1CCc2c(sc3ncnc(SCC(=O)NCc4ccco4)c23)C1 (centres undefined),i
O=S(=O)(c1ccc(-c2ccon2)s1)N(Cc1ccccn1)Cc1ccccn1,i

# Other compounds:
SMILES,ID4 binder
O=C(Nc1ccc2c(c1)[C@@H]1C[C@H](CC(=O)N3CCc4ccccc4C3)O[C@H](CO)[C@@H]1O2)C1CCOCC1,i
COc1ccc(Cl)cc1C(=O)N(Cc1nc(-c2ccc(C)cc2)no1)C(C)C,i
CN(C)C(=O)C[C@H]1CC[C@@H](NC(=O)C2CC2)[C@@H](CO)O1,i
COc1ccccc1-c1ccc([C@H]2[C@@H](CO)N(C(=O)C3CCC3)[C@H]2C#N)cc1,i
CO[C@@H](CN(C)Cc1ccc(-c2ccccn2)cc1)[C@H](C)CN(C(=O)Nc1ccc(F)cc1)[C@@H](C)CO,i
Cc1cc(Cl)ccc1NC(=O)CN(c1ccc(Cl)c(Cl)c1)S(C)(=O)=O,i
Cc1nc(SCC(=O)NCc2ccco2)c2c(C)c(C)sc2n1,i
CC(C)c1cn(CC[C@H]2CC[C@H](NC(=O)C3CC3)[C@H](CO)O2)nn1,i
Cc1nnc(SCC(=O)Nc2ccccc2C(=O)c2ccccc2)s1,i
COc1ccc(-c2cc(C(F)(F)F)c(C#N)c(SCC(=O)Nc3ccccc3F)n2)cc1,i
CO[C@H](CN(C)C(=O)c1cnccn1)[C@@H](C)CN([C@@H](C)CO)S(=O)(=O)c1ccc(F)cc1,i
COc1ccc(Cl)cc1NC(=O)Cn1c(=O)oc2ccccc21,i
CCCNC(=O)N(C)C[C@@H]1Oc2cc(C#Cc3ccccn3)ccc2S(=O)(=O)N([C@H](C)CO)C[C@H]1C,i
CO[C@H](CN(C)Cc1cc(F)ccc1F)[C@H](C)CN([C@@H](C)CO)S(=O)(=O)c1ccc(F)cc1,i
O=C(C[C@@H]1CC[C@@H](NC(=O)CN2CCOCC2)[C@@H](CO)O1)NCCc1ccncc1,i
CCOc1ccc(Cl)cc1S(=O)(=O)NCc1cccnc1,i
O=C(CSc1nnc(-c2ccccc2)n1-c1ccccc1)c1ccc(F)cc1,i
O=C(N[C@H]1CC[C@@H](CC(=O)N2CCOCC2)O[C@H]1CO)c1cccc(F)c1,i
COc1ccc(NC(=O)CC2Nc3cccc4cccc(c34)NC2=O)cc1 (centres undefined),i
COc1ccc(NS(=O)(=O)c2ccccc2)cc1CN1C(=O)c2ccccc2C1=O,i
O=C(COc1ccccc1)Nc1ccc2oc(-c3cccc(Cl)c3Cl)nc2c1,i
CO[C@H](CN(C)C(=O)c1cc(Cl)cc(Cl)c1)[C@H](C)CN(C(=O)Nc1ccc(F)cc1)[C@H](C)CO,i
Cc1cc([N+](=O)[O-])ccc1NC(=O)CSc1n[nH]c(-c2ccc(Cl)cc2)n1,i
Oc1c(C(Nc2cccnc2)c2ccccc2F)ccc2cccnc12 (centres undefined),i
C[C@@H]1CN([C@@H](C)CO)C(=O)c2cc(C#Cc3ccccc3)cnc2O[C@H]1CN(C)C(=O)c1ccccc1,i

# Structures listed so far with a cyano group, in the order listed:
SMILES,ID4 binder
C[C@H](CO)N1C[C@H](C)[C@H](CN(C)C)Oc2cc(-c3ccc(C#N)cc3)ccc2S1(=O)=O,i
COc1ccccc1-c1ccc([C@H]2[C@@H](CO)N(C(=O)C3CCC3)[C@H]2C#N)cc1,i
COc1ccc(-c2cc(C(F)(F)F)c(C#N)c(SCC(=O)Nc3ccccc3F)n2)cc1,i

# Rewritten with each value named: part of the list above
SMILES: COc1ccc(Cl)cc1C(=O)N(Cc1nc(-c2ccc(C)cc2)no1)C(C)C
- ID4 binder: i
SMILES: CN(C)C(=O)C[C@H]1CC[C@@H](NC(=O)C2CC2)[C@@H](CO)O1
- ID4 binder: i
SMILES: COc1ccccc1-c1ccc([C@H]2[C@@H](CO)N(C(=O)C3CCC3)[C@H]2C#N)cc1
- ID4 binder: i

# Going on with the list.
SMILES,ID4 binder
Cc1ccc(-c2nc3cc(Cl)ccc3o2)cc1NC(=O)COc1ccc(Br)cc1,i
COc1cc2c(cc1OC)C(=O)OC2,i
CCCN(C)C[C@H]1Oc2cc(-c3ccccc3)ccc2S(=O)(=O)N([C@@H](C)CO)C[C@H]1C,i
CC(C)CC#Cc1cnc2c(c1)C(=O)N([C@H](C)CO)C[C@H](C)[C@H](CN(C)C(=O)c1ccccc1F)O2,i
C=CCN1C(=O)/C(=C2\SC(N3CCCCC3)=NC2=O)c2ccccc21,i
C[C@H](CO)N1C[C@H](C)[C@H](CN(C)C)Oc2ccc(NC(=O)C3CCCCC3)cc2C1=O,i
COc1ccc(-c2noc(CSc3nnc(-c4cccs4)n3-c3ccccc3)n2)cc1OC,i
C[C@H](NC(=O)C[C@@H]1C=C[C@H](NC(=O)C2CC2)[C@@H](CO)O1)c1ccccc1,i
CN1CCN(C(=O)CN(c2cccc3ccccc23)S(C)(=O)=O)CC1,i
COc1ccc(Cl)cc1NC(=O)CSc1nnc(-c2ccc(Cl)c(Cl)c2)n1C,i
C[C@H](CO)N1C[C@H](C)[C@H](CN(C)Cc2cccc(F)c2)Oc2ncc(Br)cc2C1=O,i
O=C(NCCCn1ccnc1)c1cc2c(s1)CCCC2,i
O=C(CSc1nc2ccc(NC(=O)c3ccccc3Br)cc2s1)Nc1ccccc1,i
O=C(N[C@@H]1C=C[C@H](CC(=O)N2CCc3ccccc3C2)O[C@H]1CO)C1CCC1,i
CCCN(C)C[C@H]1Oc2cc(-c3ccccc3F)ccc2S(=O)(=O)N([C@@H](C)CO)C[C@H]1C,i
O=C(COc1ccccc1)Nc1ccc(Cl)cc1C(=O)O,i
COc1cccc(-c2cc(C(=O)Nc3ccc(S(=O)(=O)NC(C)=O)cc3)c3ccccc3n2)c1,i
CC(C)CC#Cc1cnc2c(c1)C(=O)N([C@@H](C)CO)C[C@H](C)[C@@H](CN(C)C(=O)c1ccc(F)cc1)O2,i
C[C@@H]1CN([C@@H](C)CO)S(=O)(=O)c2ccc(C#CC3(O)CCCC3)cc2O[C@@H]1CN(C)C(=O)c1ccncc1,i
C[C@@H]1CN([C@H](C)CO)C(=O)c2cc(C#Cc3ccncc3)cnc2O[C@H]1CN(C)CC1CCCC1,i
CC(C)C(=O)Nc1nc(OC(=O)N(c2ccccc2)c2ccccc2)c2[nH]cnc2n1,i
COc1ccccc1-c1cnc2c(c1)C(=O)N([C@H](C)CO)C[C@@H](C)[C@H](CN(C)Cc1ccccc1)O2,i
C[C@@H]1CN([C@@H](C)CO)C(=O)c2cc(-c3ccccc3)cnc2O[C@H]1CN(C)C(=O)Cc1ccccc1,i
C[C@@H]1CN([C@H](C)CO)C(=O)c2cc(-c3ccccc3)cnc2O[C@@H]1CN(C)Cc1ccccn1,i
COc1ccc(OC)c(C(O)c2coc3ccc(O)c(CN(C)C)c23)c1 (centres undefined),i
# (listing goes on)
SMILES,ID4 binder
CN(C)CCCCCCNC(=O)[C@@H]1C[C@@H]2C(=O)N3CCC[C@H]3C(=O)N2[C@@H]1c1ccc(O)cc1,+
C[C@@H]1CN([C@@H](C)CO)C(=O)c2cc(C3=CCCCC3)cnc2O[C@H]1CN(C)C(=O)Cc1ccccc1,i
Cc1ccc(NC(=O)Cn2cc([N+](=O)[O-])cn2)cc1Cl,i
COc1ccc(S(=O)(=O)N(C)CC(=O)Nc2cccc([N+](=O)[O-])c2)cc1Cl,i
CN(CC(=O)Nc1c(F)cccc1F)S(=O)(=O)c1ccc(Cl)cc1,i
C[C@H](CO)N1C[C@H](C)[C@@H](CN(C)C(=O)Nc2ccc(F)cc2)Oc2c(cccc2N(C)C)C1=O,i
C[C@H]1CN([C@@H](C)CO)C(=O)CCCn2nncc2CO[C@@H]1CN(C)Cc1cccc(C(F)(F)F)c1,i
Cc1cc(=O)[nH]c(SCCOc2cccc(Br)c2)n1,i
C[C@@H]1CN([C@@H](C)CO)C(=O)c2cc(NC(=O)CCC(F)(F)F)ccc2O[C@@H]1CN(C)CC1CC1,i
C[C@@H]1CN([C@H](C)CO)S(=O)(=O)c2ccc(C#C[C@@H](C)O)cc2O[C@@H]1CN(C)C(=O)CN(C)C,i
CCOc1ccccc1NC(=O)CSc1cc(C)c2cccc(C)c2n1,i
Cc1ccc(C(=O)COc2cc(C)nc3nncn23)cc1,i
COC(=O)C[C@H]1C[C@@H]2c3cc(NC(=O)c4ccc5c(c4)OCO5)ccc3O[C@@H]2[C@@H](CO)O1,i
CN(Cc1nc(-c2cccnc2)no1)S(=O)(=O)c1ccc2ccccc2c1,i
Cc1ccc(S(=O)(=O)N[C@H]2C=C[C@H](CC(=O)O)O[C@@H]2CO)cc1,i
COc1ccccc1NC(=O)CSc1nnc(-c2ccccc2Cl)n1-c1ccccc1,i
COc1ccc(C(=O)CSc2nnc(-c3ccc(OC)c(OC)c3)n2-c2ccccc2)cc1,i
Cc1ccc(NC(=O)C(C)Oc2ccc(Br)cc2)c([N+](=O)[O-])c1 (centres undefined),i
CCc1ccccc1NC(=O)CSc1nnc(-c2cccc(C)c2)n1C,i
O=C(Nc1ccc(F)cc1)N[C@@H]1C=C[C@@H](CC(=O)N2CCCCC2)O[C@@H]1CO,i
Cc1ccc(-c2cnc3c(c2)C(=O)N([C@@H](C)CO)C[C@@H](C)[C@@H](CN(C)C(=O)c2ccccc2)O3)cc1,i
COC(=O)CSc1ncnc2c1sc1nc3c(cc12)COC(C)(C)C3,i
CCCC#Cc1cnc2c(c1)C(=O)N([C@H](C)CO)C[C@@H](C)[C@H](CN(C)Cc1ccc(F)cc1)O2,i
N#C[C@@H]1[C@@H](c2ccc(-c3ccccc3)cc2)[C@@H](CO)N1C(=O)Cc1ccncc1,i
CNC(=O)c1cc(Br)cc2c1OCC2,i
# (further entries)
SMILES,ID4 binder
NC(=O)CSc1oc(-c2ccc(F)cc2)nc1S(=O)(=O)c1ccc(Br)cc1,i
C[C@@H]1CN([C@H](C)CO)C(=O)Cc2cc(N(C)C)ccc2O[C@H]1CN(C)Cc1ccc2c(c1)OCO2,i
Cc1ccc(-c2cnc3c(c2)C(=O)N([C@H](C)CO)C[C@@H](C)[C@@H](CN(C)C(=O)CN(C)C)O3)cc1,i
O=c1c2ccccc2nc(/C=C/c2cc(Br)ccc2O)n1CCCO,i
C=CCN1CCc2nc(N)sc2CC1,i
COc1cc(-c2coc3cc(OCc4ccccc4)c(OC)c(O)c3c2=O)cc(O)c1OC,i
Nc1nc(SCC(=O)c2ccc3c(c2)OCCO3)n[nH]1,i
Cc1cnc(C(=O)NCCc2ccc(S(=O)(=O)NC(=O)NC3CCCCC3)cc2)cn1,i
COc1ccc2cc([C@H](C)CO)ccc2c1,i
CN(C)c1ccc(-c2[nH]c(=S)[nH]c(=O)c2C#N)cc1,i
c1ccc(COc2ccc(Oc3nc(N4CCOCC4)nc(N4CCOCC4)n3)nn2)cc1,i
Cc1c(CCC(=O)O)c(=O)oc2cc(OCc3ccc(Br)cc3)ccc12,i
Cc1ccccc1-c1nc(SCC(=O)Nc2sc3c(c2C#N)CCCC3)n[nH]1,i

# Shown with bars between the fields: 5 of the compounds above
SMILES | ID4 binder
O=c1c2ccccc2nc(/C=C/c2cc(Br)ccc2O)n1CCCO | i
C=CCN1CCc2nc(N)sc2CC1 | i
COc1cc(-c2coc3cc(OCc4ccccc4)c(OC)c(O)c3c2=O)cc(O)c1OC | i
Nc1nc(SCC(=O)c2ccc3c(c2)OCCO3)n[nH]1 | i
Cc1cnc(C(=O)NCCc2ccc(S(=O)(=O)NC(=O)NC3CCCCC3)cc2)cn1 | i

# Screening results from PubChem.
